Vaccinia inh – blocks a specific stage of Vaccinia orthopoxvirus infection, primary screen, cell-based, single point; Vaccinia-infected cells, mCherry/Venus stage reporter fluorescence; hits give low values; some inactives read as strong as hits; activity change (mCherry), % (no concentration beside the values); AID 1053133, 2014; 0.01% of 89,000 active;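 active = mCherry past -33% and 40 or more points under the early reporter, replicates agreeing; inconclusive = past -33% without that gap or agreement; tested in A549 cells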;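 note: scaled between vehicle wells and reference inhibitor wells; 23 nL library stock went into each well; one replicate is shown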
Vaccinia inh Venus – also measured in Vaccinia inh; calls as there; activity change (Venus), %; measured here: Venus reporter, other viral stage;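 negative = less Venus signal; first of two replicates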
The depositor's hits bear a star; u = inconclusive; x = no result given; & = joins results of further samples. Some of the compounds tested (hit frequency here may not be typical).

Under each structure: Vaccinia inh, Vaccinia inh Venus
- Cc1noc(C)c1NC(=O)Nc1ccc2c(c1)C(=O)N(C)[C@@H]1CC[C@@H](CC(=O)N[C@H]3CCN(Cc4ccccc4)C3)O[C@H]1CO2
→ 1, 5
- Cc1ccc(-c2cnc3c(c2)C(=O)N([C@H](C)CO)C[C@@H](C)[C@H](CN(C)Cc2ccccc2F)O3)cc1
→ u, x
- COc1ccccc1-c1ccc2n(c1=O)C[C@@H]1[C@@H](CO)[C@H](C(=O)N(C)C)N(CC3CCOCC3)[C@H]21
→ -2, -3
- Cc1ccc(S(=O)(=O)N(C)C[C@@H]2Oc3ccc(NC(=O)Nc4ccc(C(F)(F)F)cc4)cc3C(=O)N([C@H](C)CO)C[C@@H]2C)cc1
→ -27, -14
- CCCN1C[C@H](C)[C@@H](OC)CN(C)C(=O)c2ccc(NC(=O)C3CC3)cc2OC[C@@H]1C
→ -5, -4
- COc1ccccc1NC(=O)N1CCCCN2[C@H](C1)[C@H](c1ccc(C#CC3CCCC3)cc1)[C@@H]2CO
→ u, x
- COCC#Cc1ccc([C@@H]2[C@@H](CO)N3CCCCN(Cc4cncnc4)C[C@@H]23)cc1
→ 25, 20
- COc1cccc(NC(=O)C[C@@H]2CC[C@@H]3[C@@H](COc4ccc(NC(=O)C5CC5)cc4C(=O)N3C)O2)c1
→ -21, -13
- C[C@@H]1CN([C@H](C)CO)C(=O)c2cc(/C=C/c3ccccc3)cnc2O[C@@H]1CN(C)C
→ -5, 0
- O=C(C[C@@H]1CC[C@H](NC(=O)NC2CCCCC2)[C@@H](CO)O1)NCc1ccc(F)cc1
→ -2, 9
- O=C(C[C@H]1C=C[C@@H](NC(=O)Cc2ccccn2)[C@@H](CO)O1)NCCCN1CCOCC1
→ 0, 11
- CO[C@H](C(=O)N(C)C[C@H]1OCc2ccccc2-c2ccccc2C(=O)N([C@@H](C)CO)C[C@H]1C)c1ccccc1
→ 16, 1
- CC=Cc1ccc2n(c1=O)C[C@@H]1[C@@H](CO)[C@H](C(=O)OC)[C@H]2N1S(=O)(=O)c1ccccc1C (mixture of isomers)
→ 8, 9
- CCCC#Cc1ccc([C@@H]2[C@@H](C#N)N(C(=O)CN3CCOCC3)[C@H]2CO)cc1
→ 18, 9
- CC(C)C#Cc1ccc2c(c1)O[C@H](CN(C)S(C)(=O)=O)[C@H](C)CN([C@@H](C)CO)S2(=O)=O
→ 1, -10
- CC=Cc1ccc2n(c1=O)C[C@@H]1[C@@H](CO)[C@H](C(=O)NCC3CC3)[C@H]2N1Cc1ccccc1 (mixture of isomers)
→ -2, 9
- C[C@H]1CN([C@@H](C)CO)C(=O)c2cccc(NC(=O)Nc3ccc(C(F)(F)F)cc3)c2O[C@H]1CN(C)Cc1ccc2c(c1)OCO2
→ u, x
- CCC(=O)Nc1ccc2c(c1)C(=O)N(C)C[C@H](OC)[C@@H](C)CN(CCc1ccccc1)[C@@H](C)CO2
→ -1, -2
- COCC#Cc1ccc2c(c1)O[C@H](CN(C)C)[C@@H](C)CN([C@@H](C)CO)S2(=O)=O
→ -1, 3
- O=S(=O)(c1ccccc1)N1C[C@H]2[C@@H](c3ccccc31)[C@@H](CO)N2Cc1ccc(F)cc1
→ -5, -9
- C[C@H](CO)N1C[C@H](C)[C@@H](CN(C)C(=O)NC2CCCCC2)Oc2ccc(NC(=O)Cc3ccccc3)cc2CC1=O
→ 3, 1
- C[C@H]1CN([C@@H](C)CO)S(=O)(=O)c2ccc(-c3ccc(C#N)cc3)cc2O[C@@H]1CN(C)C
→ -14, 3
- C[C@@H]1CN([C@@H](C)CO)C(=O)CCCn2nncc2CO[C@H]1CN(C)S(=O)(=O)c1ccccc1
→ 26&2, 11&-2
- COc1ccc(NC(=O)Nc2ccc3c(c2)OC[C@@H](C)NC[C@@H](C)[C@H](OC)CN(C)C3=O)cc1
→ -4, -9
- C[C@H](CO)N1C[C@H](C)[C@H](CN(C)C(=O)Nc2ccccc2)Oc2ccc(NC(=O)C3CC3)cc2CC1=O
→ 21, 18
- O=C(O)C[C@@H]1C[C@H]2c3cc(NS(=O)(=O)c4ccc(F)cc4)ccc3O[C@H]2[C@@H](CO)O1
→ 7, 9
- CNC[C@H]1OCCCC[C@H](C)Oc2ccc(NC(=O)c3ccccc3)cc2C(=O)N([C@@H](C)CO)C[C@@H]1C
→ -11, 0
- C[C@@H]1CN([C@H](C)CO)C(=O)c2cccc(NC(=O)Nc3ccc4c(c3)OCO4)c2O[C@@H]1CN(C)Cc1ccc(C(=O)O)cc1
→ 18, 15
- CO[C@H]1CN(C)C(=O)c2cc(NC(=O)C3CC3)ccc2OC[C@H](C)N(Cc2nccs2)C[C@@H]1C
→ 1, 4
- C[C@H](CO)N1C[C@H](C)[C@H](CN(C)C(=O)c2ccc(F)cc2)Oc2cc(C3=CCCCC3)ccc2S1(=O)=O
→ u, x

A few values from the entries so far:
Under Vaccinia inh Venus, O=C(O)C[C@@H]1C[C@H]2c3cc(NS(=O)(=O)c4ccc(F)cc4)ccc3O[C@H]2[C@@H](CO)O1 reads 9
Under Vaccinia inh Venus, O=S(=O)(c1ccccc1)N1C[C@H]2[C@@H](c3ccccc31)[C@@H](CO)N2Cc1ccc(F)cc1 reads -9

Carrying on:
Under each structure: Vaccinia inh, Vaccinia inh Venus
- CCC(=O)N(C)C[C@@H]1Oc2ncc(Br)cc2C(=O)N([C@@H](C)CO)C[C@@H]1C
→ 10, 8
- Cn1cnc(S(=O)(=O)N[C@H]2CC[C@@H](CC(=O)NCC3CCCCC3)O[C@@H]2CO)c1
→ 4, 3
- Cc1ccc(S(=O)(=O)N(C)C[C@H]2OCCCC[C@H](C)Oc3ccc(NC(=O)Nc4ccc(C(F)(F)F)cc4)cc3C(=O)N([C@@H](C)CO)C[C@@H]2C)cc1
→ -22, -2
- COCC(=O)Nc1ccc2c(c1)OC[C@H](C)N(Cc1ccccc1OC)C[C@H](C)[C@@H](OC)CN(C)C2=O
→ 6, 9
- O=C(C[C@H]1CC[C@H]2[C@@H](COC[C@H](O)CN2Cc2ccc(Cl)cc2)O1)NCCc1ccccc1
→ -16, -5
- Cc1noc(C)c1S(=O)(=O)Nc1ccc2c(c1)C(=O)N([C@H](C)CO)C[C@@H](C)[C@@H](CN(C)C(=O)c1ccccc1)OCCCC[C@@H](C)O2
→ 30, 24
- CN1CCN(C(=O)c2cc3c(c(-c4cccc(-c5cccnc5)c4)n2)[C@@H](CCO)N(C(=O)CC2CC2)C3)CC1
→ 16, 16
- COc1cccc(NC(=O)Nc2ccc3c(c2)C(=O)N(C)C[C@H](OC)[C@@H](C)CN[C@H](C)CO3)c1
→ -1, 5
- COc1ccc2c3c([nH]c2c1)[C@@H](CO)N(C(=O)NC(C)C)CC31CN(C(=O)c2ccncc2)C1
→ 29, 4
- CCCC#Cc1cnc2c(c1)C(=O)N([C@@H](C)CO)C[C@@H](C)[C@@H](CN(C)C(=O)NCCC)O2
→ 11, 5
- CNC[C@H]1Oc2ccc(NS(C)(=O)=O)cc2CC(=O)N([C@@H](C)CO)C[C@H]1C
→ 0, 14
- C[C@@H]1CN([C@H](C)CO)C(=O)Cc2cc(NC(=O)Nc3ccc4c(c3)OCO4)ccc2O[C@@H]1CN(C)CC1CC1
→ 3, 4
- O=C(C[C@@H]1C=C[C@H](NC(=O)c2ccncc2)[C@@H](CO)O1)NCC1CCCCC1
→ 3, 6
- C[C@@H]1CN([C@@H](C)CO)C(=O)Cc2cc(NC(=O)C3CCCCC3)ccc2O[C@H]1CN(C)C(=O)Nc1ccc(C(F)(F)F)cc1
→ -24, -11
- O=C(c1ccccc1F)N1CC[C@@H]2[C@@H](CO)Nc3ccc(C#Cc4ccccc4)cc3[C@@H]21
→ 20, 12
- Cc1ccccc1-c1ccc([C@H]2[C@H]3CN(C(=O)Cc4ccccn4)CC(=O)N3[C@H]2CO)cc1
→ -12, -27
- CC(C)NC(=O)N(C)C[C@@H]1Oc2ncc(C#CC3CC3)cc2C(=O)N([C@H](C)CO)C[C@@H]1C
→ 5, 6
- COc1ccc(CN(C)C[C@@H]2Oc3ccc(NC(=O)Cn4cnnn4)cc3CC(=O)N([C@@H](C)CO)C[C@H]2C)cc1
→ 12, 2
- CCC(=O)N1[C@@H]2c3cccc(=O)n3C[C@@H]2[C@@H](CO)[C@@H]1C(=O)NCC1CC1
→ 10, 12
- C/C=C/c1ccc([C@H]2[C@H](CO)N3CCCCN(C(=O)Nc4cc(F)ccc4F)C[C@@H]23)cc1
→ u, x
- C[C@@H]1CN([C@H](C)CO)C(=O)c2cc(NC(=O)CCCCCC(=O)Nc3ccccc3N)ccc2O[C@@H]1CN(C)S(=O)(=O)c1cccs1
→ 8, 3
- CCN(C[C@@H]1N[C@H](CO)[C@H]1c1ccc(-c2cccc(F)c2)cc1)C(=O)COC
→ 2, 5
- C[C@H](CO)N1C[C@H](C)[C@@H](CN(C)C)Oc2c(NS(=O)(=O)c3ccccc3)cccc2C1=O
→ 11, 1
- O=C([C@H]1N[C@H]2c3ccc(C4=CCCC4)c(=O)n3C[C@H]2[C@@H]1CO)N1CCc2ccccc2C1
→ 8, 0
- CC(C)NC(=O)Nc1ccc2c(c1)C(=O)N([C@H](C)CO)C[C@@H](C)[C@@H](CN(C)C(=O)NC(C)C)O2
→ -2, 2
- Cc1ccccc1S(=O)(=O)N(C)C[C@@H]1OCc2cnnn2CCCC(=O)N([C@@H](C)CO)C[C@@H]1C
→ 17, 7
- CCC(=O)N1C[C@H](O)COC[C@H]2O[C@@H](CC(=O)N3CCCCC3)CC[C@@H]21
→ 11, 8
- O=C(O)C[C@H]1C[C@H]2c3cc(NC(=O)C4CCOCC4)ccc3O[C@H]2[C@@H](CO)O1
→ -2, 2
- CNC[C@@H]1Oc2c(NS(=O)(=O)c3cn(C)cn3)cccc2C(=O)N([C@H](C)CO)C[C@@H]1C
→ 16, 18
- CCCC(=O)N1CCC2(CC1)CN(C(=O)COC)[C@H](CO)c1c2c2ccc(OC)cc2n1C
→ 13, 4
- CCCNC(=O)N1CC2(C1)[C@H](c1ccccc1)[C@H](CO)N2C(=O)CC1CC1
→ 5, 10
- CCCNC(=O)[C@H]1[C@H](CO)[C@H]2Cn3c(ccc(-c4ccccc4)c3=O)[C@@H]1N2Cc1ccccc1F
→ 6, 7
- O=C(C[C@@H]1C=C[C@@H](NC(=O)Cc2cccnc2)[C@@H](CO)O1)Nc1ccc(-c2ccccc2)cc1
→ -9, -5
- O=C(C[C@H]1C=C[C@H](NC(=O)c2ccncc2)[C@@H](CO)O1)Nc1ccc(-c2ccccc2)cc1
→ -5, -2
- C[C@@H]1CCCCO[C@@H](CN(C)Cc2ccc(C(=O)O)cc2)[C@@H](C)CN([C@H](C)CO)C(=O)c2cc(NC(=O)CCCN(C)C)ccc2O1
→ 15, 10
- C[C@H]1CN([C@@H](C)CO)C(=O)c2cc(NC(=O)Nc3ccc(C(F)(F)F)cc3)ccc2O[C@@H]1CN(C)S(=O)(=O)c1ccccc1
→ 12, 7
- C[C@@H]1CCCCO[C@@H](CN(C)CC2CCCCC2)[C@@H](C)CN([C@@H](C)CO)C(=O)c2cc(NS(C)(=O)=O)ccc2O1
→ -16, -6
- COC(=O)[C@H]1[C@H](CO)[C@H]2Cn3c(ccc(-c4ccccc4F)c3=O)[C@@H]1N2
→ 13, 13
- COc1ccc(NC(=O)N(C)C[C@H]2Oc3c(NS(=O)(=O)c4ccc(Cl)cc4)cccc3C(=O)N([C@@H](C)CO)C[C@@H]2C)cc1
→ 3, 1
- C[C@@H]1CN([C@H](C)CO)C(=O)c2cc(NS(=O)(=O)c3ccccc3)ccc2O[C@@H](C)CCCCO[C@H]1CN(C)Cc1ccccc1
→ u, x
- COc1ccc(CN(C)C[C@H]2Oc3ccc(NS(=O)(=O)c4ccc(Cl)cc4)cc3CC(=O)N([C@@H](C)CO)C[C@@H]2C)cc1
→ u, x
- COCC(=O)Nc1ccc2c(c1)[C@@H]1C[C@@H](CC(=O)NCc3ccc(OC)cc3)O[C@@H](CO)[C@@H]1O2
→ 11, 5
- O=C(Nc1ccc(-c2ccccc2)cc1)[C@H]1[C@H](CO)[C@H]2Cn3c(cccc3=O)[C@H]2N1CC1CC1
→ -27, -14
- COCC(=O)Nc1ccc2c(c1)C(=O)N(C)C[C@@H](OC)[C@H](C)CN(C(=O)CC1CC1)[C@@H](C)CO2
→ 0, 11
- C[C@@H]1CN([C@H](C)CO)C(=O)Cc2cc(NC(=O)CCC(F)(F)F)ccc2O[C@H]1CN(C)C(=O)Nc1ccccc1
→ 17, 17
- CO[C@@H]1CN(C)C(=O)c2ccc(NC(=O)c3cccnc3)cc2OC[C@@H](C)N(CC2CCCCC2)C[C@H]1C
→ 5, 4

Profiles from above. Order of values: Vaccinia inh	Vaccinia inh Venus
Record of COc1ccc(CN(C)C[C@H]2Oc3ccc(NS(=O)(=O)c4ccc(Cl)cc4)cc3CC(=O)N([C@@H](C)CO)C[C@@H]2C)cc1 = u	x
Record of C[C@@H]1CN([C@H](C)CO)C(=O)c2cc(NS(=O)(=O)c3ccccc3)ccc2O[C@@H](C)CCCCO[C@H]1CN(C)Cc1ccccc1 = u	x
Record of C[C@@H]1CCCCO[C@@H](CN(C)Cc2ccc(C(=O)O)cc2)[C@@H](C)CN([C@H](C)CO)C(=O)c2cc(NC(=O)CCCN(C)C)ccc2O1 = 15	10
Record of CO[C@@H]1CN(C)C(=O)c2ccc(NC(=O)c3cccnc3)cc2OC[C@@H](C)N(CC2CCCCC2)C[C@H]1C = 5	4
Record of CCCNC(=O)[C@H]1[C@H](CO)[C@H]2Cn3c(ccc(-c4ccccc4)c3=O)[C@@H]1N2Cc1ccccc1F = 6	7

Retrieved by compound from the list above:
Under each structure: Vaccinia inh, Vaccinia inh Venus
- C[C@@H]1CCCCO[C@@H](CN(C)Cc2ccc(C(=O)O)cc2)[C@@H](C)CN([C@H](C)CO)C(=O)c2cc(NC(=O)CCCN(C)C)ccc2O1
→ 15, 10
- COC(=O)[C@H]1[C@H](CO)[C@H]2Cn3c(ccc(-c4ccccc4F)c3=O)[C@@H]1N2
→ 13, 13
- O=C(C[C@@H]1C=C[C@@H](NC(=O)Cc2cccnc2)[C@@H](CO)O1)Nc1ccc(-c2ccccc2)cc1
→ -9, -5

Source: PubChem (Broad Institute)
